# Compound activity from PubChem.
# D2 agonist = activates the human D2 dopamine receptor | DiscoveRx PathHunter D2 beta-arrestin, luminescence, 90 min; 100% = 57 uM dopamine signal | 360,000 compounds, 0.084% hits | P14416 | activation, % (concentration not given with the values); in the data active = activation above about 40%; inconclusive = about 15% to 40%; inactive = below about 15%; also: the text of the record calls up to 30% inactive
#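 DiscoveRx PathHunter D2 beta-arrestin cells (2,100/well) attached overnight, then compound-stimulated 90 min at 37 C in HBSS/10 mM HEPES/0.1% Tween-20 buffer; beta-galactosidase complementation read by luminescence after 1 h at ambient temperature. Dopamine 57 uM final (EC100) as control.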
# gsp agonist = gsp mutant agonism; gsp mutant cells, cAMP HTRF, 30 min; control for the full effect not named in the record; Potency, µM (titrated, usually from 76.9 µM), for the others: at the highest dose activation (cAMP increase), actives largely listed as activators; 340,000 compounds, 0.13% hits; active = well fitted activation curve with a large enough effect; inconclusive = small, poorly fitted or top-dose-only effect, or another doubt; inactive = no such curve, though single readings can be large or run the other way; cell line not stated here;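 also: phosphodiesterase inhibitor Ro 20-1724 added with compounds to block cAMP breakdown; potency is read from the fitted curve at half-maximal effect; nearly all actives have a fitted effect of over 60% in size; about a fifth of the inactives were tested at one dose only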
#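 Cells in DMEM/10% FBS with G418 were pretreated with compounds in DMSO plus […] (300 uM stock) for 30 min at 37C. cAMP was measured by HTRF (cAMP-d2 plus anti-cAMP antibody-K) after 30 min at room temperature.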
# Six1-Eya2 inh = blocks human Six1 binding to Eya2; Q15475+O00167; AlphaScreen GST-Six1/His-Eya2 binding, biochemical; stronger effect = lower value; control for the full effect not named in the record; activity change, % (concentration not given with the values); 360,000 compounds, 0.56% hits; AID 651725; in the data active = activity change below about -65%; inconclusive = about -30% to -65%; inactive = above about -30%; also: % is scaled to controls: 0 for no effect and ±100 for the full control effect
# Target sequence (O00167 whole entry, looked up): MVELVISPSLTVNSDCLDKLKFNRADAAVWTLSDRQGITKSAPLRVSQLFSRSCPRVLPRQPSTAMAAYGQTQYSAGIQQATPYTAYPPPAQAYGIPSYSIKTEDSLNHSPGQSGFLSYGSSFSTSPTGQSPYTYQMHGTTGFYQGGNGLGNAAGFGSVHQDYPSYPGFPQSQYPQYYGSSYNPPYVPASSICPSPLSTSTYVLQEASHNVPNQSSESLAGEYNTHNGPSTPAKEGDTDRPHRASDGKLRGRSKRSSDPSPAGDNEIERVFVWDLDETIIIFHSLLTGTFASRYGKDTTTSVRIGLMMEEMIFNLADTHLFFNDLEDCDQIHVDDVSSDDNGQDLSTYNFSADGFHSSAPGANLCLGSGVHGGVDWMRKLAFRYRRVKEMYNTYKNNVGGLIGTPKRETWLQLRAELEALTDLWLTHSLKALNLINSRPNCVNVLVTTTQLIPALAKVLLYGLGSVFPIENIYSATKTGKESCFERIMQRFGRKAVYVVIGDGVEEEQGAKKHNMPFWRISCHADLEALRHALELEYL
# Target sequence (Q15475 whole entry, looked up): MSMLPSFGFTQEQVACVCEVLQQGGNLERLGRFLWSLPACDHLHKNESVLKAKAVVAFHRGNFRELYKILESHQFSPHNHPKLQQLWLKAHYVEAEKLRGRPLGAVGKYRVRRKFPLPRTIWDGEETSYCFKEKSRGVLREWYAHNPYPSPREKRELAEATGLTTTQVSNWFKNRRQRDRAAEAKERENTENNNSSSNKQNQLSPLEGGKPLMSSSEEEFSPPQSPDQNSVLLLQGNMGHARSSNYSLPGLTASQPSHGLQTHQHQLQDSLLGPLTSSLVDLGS
#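 GST-Six1 + His-Eya2 (5X stock: 250/500 nM); Tris pH 8.0, 300 mM NaCl, 0.05% BSA, 0.02% Tween 20; GSH donor/Ni acceptor beads; 1 h 37 °C dark; AlphaScreen readout.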
# gsp antag = gsp mutant antagonism | gsp-mutant cells, cAMP HTRF, 30 min; control for the full effect not named in the record | Potency, µM (top dose mostly 76.9 µM), without a hit: at the highest dose activity change, negative = inhibition, usual class: inhibitors | 340,000 compounds, 0.4% hits; active = falling curve of any shape with a large fitted effect; inconclusive = falling curve, mostly with a smaller effect; inactive = flat or rising curve; cell line not stated here;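 also: intracellular cAMP measured with PDE inhibitor Ro 20-1724 present during compound exposure; potency is read from the fitted curve at half-maximal effect; % is scaled to controls: 0 for no effect and ±100 for the full control effect; nearly all actives have a fitted effect of over 65% in size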
#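 HTRF cAMP measurement after 30 min RT detection following 30 min, 37C compound treatment alongside […] (added as 300 uM solution) in G418-selected cells seeded at 2000/well and grown 16–24 h.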
# D2 potentiator = positive allosteric modulators of human D2 dopamine receptor; DiscoveRx D2 beta-arrestin cells, luminescence, 90 min; 100% = 57 uM dopamine signal; potentiation, % (test concentration not listed); 360,000 compounds, 0.23% hits; AID 624464; active = potentiation of 50% or more; inconclusive = 30% to 50%; inactive = 30% or less;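 also: compound concentration not given in the record; tested on top of an EC20 dose of dopamine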
#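 PathHunter D2 cells, attached overnight at 37 deg C, received compound in DMSO plus dopamine at EC20 (50 nM final) for 90 min at 37 deg C. Beta-arrestin recruitment was read as luminescence after 1 h with detection reagent at ambient temperature.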
# CtBP-E1A inh = inhibitors of CtBP/E1A interaction; AlphaScreen GST-E1A/His-CtBP binding, 1536-well; stronger effect = lower value; control for the full effect not named in the record; activity change, % (no concentration beside the values); 340,000 compounds, 0.49% hits; in the data active means activity change below about -65%; inconclusive means about -30% to -65%; inactive means above about -30%; also: % is scaled to controls: 0 for no effect and ±100 for the full control effect
#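 Protein mix (5X: 125 nM each GST-E1A, His-CtBP) was incubated with pinned compound 2 h at 37 deg C in dark, in 50 mM Tris pH 8.0 buffer with 300 mM NaCl. Glutathione donor and nickel acceptor beads followed; AlphaScreen signal read after 1 h.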
# * hit, by the source's call; ? = inconclusive; nt = no result given; [ ] = remark or other dose.
Structure,D2 agonist,gsp agonist,Six1-Eya2 inh,gsp antag,D2 potentiator,CtBP-E1A inh
CCCn1c(=O)c2ccccc2n2c(=S)[nH]nc12,2.4,-82%[inhibitor],-5,1%,-13,-3
COc1cc(-c2nnc(SCC(=O)N(C)C3CCS(=O)(=O)C3)o2)cc(OC)c1OC (configuration not stated),-1.1,2%[15.4 µM],0,-2%,-1,0
O=C(Nc1ccccc1C(=O)Nc1nccs1)c1ccccc1,4.5,nt,-9,nt,5,2
NC(=O)CSc1nc2ccc([N+](=O)[O-])cc2[nH]1,-0.1,16%[15.4 µM],2,-9%,-24,13
Cn1cc([N+](=O)[O-])c(C(=O)NNC(=O)c2ccc([N+](=O)[O-])cc2Cl)n1,5.6,1%,-1,-5%,0,1
COc1ccccc1OCC(=O)N1CC2(C)CC1CC(C)(C)C2 (configuration not stated),-2.5,-18%,3,-2%,2,0
c1ccc(CC2CCN(Cc3nc(-c4ccccc4)no3)CC2)cc1,3.0,?,1,2%,-3,7
COc1ccc(OC)c(NC(=O)c2cc(-c3ccc(F)cc3OC(C)C)n[nH]2)c1,1.4,nt,-14,nt,-2,-25
CCOc1ccc(CCNC(=O)Cn2nc(C)c3c(C)n(-c4ccccc4)nc3c2=O)cc1OCC,-0.4,-16%,2,1%,-6,nt
CC(C)c1cc(C(=O)Nc2cc(Br)ccc2O)no1,2.8,-49%[inhibitor],0,-10%,22,4
COCCN(Cc1cc2cc(C)ccc2[nH]c1=O)S(=O)(=O)c1ccc(Cl)cc1,1.1,23%,-2,-8%,-9,-8
O=C1N[C@@H](Cc2cn(S(=O)(=O)c3ccccc3)c3ccccc23)C(=O)N[C@H]1Cc1ccccc1,-3.0,0%,-3,1%,-12,5
CCOC(=O)C1=C(COC(=O)CCOc2ccccc2)NC(=O)NC1C (configuration not stated),-0.1,?,?,-18%,1,-12
Cc1ccccc1C(=O)Nc1ccccc1N1CCN(C(=O)c2ccccc2)CC1,-2.2,-3%[15.4 µM],7,?,-9,8
Cc1onc(-c2ccccc2)c1C(=O)Nc1ccc2c(C)cc(=O)oc2c1,-2.3,25%,8,-3%,-6,0
CN(CC(O)CN)CC(O)CN1CCCCC1 (configuration not stated),-3.1,-3%,3,10%,-16,-2
O=C(COc1ccc(Cl)cc1Cl)Nc1nc2n(n1)C(c1ccccc1)CC(=O)N2 (configuration not stated),-1.5,20%,-2,7%,18,-5
CC1CCc2c(sc3ncn(N)c(=N)c23)C1 (configuration not stated),-4.5,27%,-1,9%,-12,-13
O=S(=O)(Nc1cccc(-c2cn3cccnc3n2)c1)c1ccc(-c2ccccc2)cc1,7.1,12%,?,-11%,13,?
Cn1c(C(=O)N2CCCC(C(=O)NCc3ccc4c(c3)OCO4)C2)cc2sccc21 (configuration not stated),-3.0,0%,-5,-16%,-5,-10
C=C(C)c1cc2c(ccc3ccc(=O)oc32)o1,7.4,nt,8,-4%,-16,6
COCCOC(=O)c1c(C)oc2ccc(OC(=O)c3ccco3)cc12,-2.0,-5%,9,-1%,-4,3
CCOC(=O)C1CCCN(C(=O)c2cccs2)CC1 (configuration not stated),-7.3,nt,6,nt,-2,-1
COC(=O)CCC(=O)NC1CC(C)(C)Cc2c1cnn2-c1ccccc1 (configuration not stated),-2.6,10%,0,-7%,-1,6
O=C(CN1C(=O)NC2(CCCCCC2)C1=O)NCc1ccco1,0.1,14%,11,11%,-4,-4
CC(=O)N[C@@H](Cc1c[nH]c2ccccc12)C(=O)OCC(=O)NCc1ccc2c(c1)OCO2,-5.6,20%,3,-1%,6,10
CCOC(=O)c1c(C)[nH]c(C)c1C(=O)CSc1nc2ccccc2c(=O)n1-c1ccc(F)cc1,-2.0,4%[15.4 µM],-12,-19%,-4,14
C[C@H](CO)N1C[C@H](C)[C@@H](CN(C)C(=O)Nc2ccccc2)Oc2c(NC(=O)Nc3ccccc3)cccc2C1=O,5.5,nt,-3,-1%,12,0
COc1cc(NC(=O)CN2CCN(c3ccccc3F)CC2)cc(OC)c1,-0.5,-4%,-1,-1%,-23,13
COc1cc(C2NC(=O)NC(C)=C2C(=O)Nc2cccc(C)c2C)cc(OC)c1OC (configuration not stated),-1.5,2%,5,0%,-1,7
O=C(CN1C(=O)NC2(CCCC2)C1=O)Nc1ccc(F)c([N+](=O)[O-])c1,-5.9,-21%[15.4 µM],-13,2%,-6,-11
COc1ccc(N2CCN(CC(O)COc3cc(C)cc(C)c3)CC2)cc1 (configuration not stated),-1.0,-1%,-6,10%,-18,-27
CN(Cc1ccccc1)c1nc(N)c([N+](=O)[O-])c(NCc2ccccc2)n1,0.0,1%,-25,19%,-10,-4
CCCOc1ccc(C2NC(=S)NC(c3ccccc3)=C2C(=O)Nc2ccc(C)cc2)cc1OC (configuration not stated),-0.1,6%,-18,-20%,2,-10
CCSc1cc(N2CCCC2)nc(-c2ccc(C)cc2)n1,-1.4,-4%,-18,5%,-11,-3
Cc1nn(CC(=O)Nc2nc3ccccc3s2)c(C)c1[N+](=O)[O-],-3.0,-18%,-1,4%,-15,8
Cc1ccc(NC2=NC(c3ccc(F)cc3)n3c(nc(C)cc3=O)N2)cc1 (configuration not stated),-1.7,-2%[15.4 µM],3,-4%,-12,14
COC(=O)NNC(=O)C1CCC(C(=O)NNC(=O)OC)CC1 (configuration not stated),-12,-7%[15.4 µM],8,-3%,0,-1
COc1ccc(Nc2ccc(C(N)=O)cc2[N+](=O)[O-])cc1,-8.2,19%[15.4 µM],-2,0%,-11,-8
Cc1ccc(C)c(SCC(=O)OCC(=O)Nc2ncc(C(F)(F)F)cc2Cl)c1,2.9,-7%[15.4 µM],3,-9%,-4,4

# Some of the entries above in a different format.
# Results follow in this order: D2 agonist, gsp agonist, Six1-Eya2 inh, gsp antag, D2 potentiator, CtBP-E1A inh
> COC(=O)NNC(=O)C1CCC(C(=O)NNC(=O)OC)CC1 (configuration not stated)
    -12, -7%[15.4 µM], 8, -3%, 0, -1
> COc1ccc(Nc2ccc(C(N)=O)cc2[N+](=O)[O-])cc1
    -8.2, 19%[15.4 µM], -2, 0%, -11, -8
> Cc1ccc(C)c(SCC(=O)OCC(=O)Nc2ncc(C(F)(F)F)cc2Cl)c1
    2.9, -7%[15.4 µM], 3, -9%, -4, 4

# Following part:
Structure,D2 agonist,gsp agonist,Six1-Eya2 inh,gsp antag,D2 potentiator,CtBP-E1A inh
Cc1ccc(O/C=C2\OC(=O)c3ccccc32)cc1,-1.0,?,2,5%,-14,9
Cc1ccc(S(=O)(=O)N(C)c2ccc(OC(=O)CN3C(=O)NC(C)(c4ccccc4)C3=O)cc2)cc1C (configuration not stated),0.2,-19%,9,-13%,3,21
O=c1oc2cc(O)ccc2cc1S(=O)(=O)c1ccccc1,4.9,13%,17,-5%,3,nt
CCc1cccc(C)c1NC(=O)C1CC=CCC1C(=O)O (configuration not stated),-1.8,-18%,2,6%,3,-5
O=C(CNS(=O)(=O)c1ccccc1)Nc1ccccc1Br,-2.7,-5%[15.4 µM],1,4%,-6,-2
COCCCn1c(C)nnc1-c1cnn(-c2ccccc2)c1N,-5.7,1%,2,-2%,3,-5
CCOc1ccc2nc(SCC(=O)N3CCN(C(=O)c4ccco4)CC3)sc2c1,-3.1,-12%,4,-15%,5,-12
Cc1ccc(C)c(S(=O)(=O)N2CCCOC2CNC(=O)C(=O)NCc2ccncc2)c1 (configuration not stated),-3.5,-4%,8,10%,-4,-5
CCCc1nnc(NC(=O)CSc2nnc(-c3ccco3)n2C)s1,3.3,23%,-2,3%,-2,-18
COc1ccc(S(=O)(=O)N2CCCOC2CNC(=O)C(=O)NCCO)cc1 (configuration not stated),-2.4,-14%,4,nt,-7,3
COc1ccc(C=Nc2cccc3c(=O)[nH][nH]c(=O)c23)c2ccccc12,-1.0,-13%,-6,-3%,1,-7
O=C(NCc1ccncc1)C(=O)NCC(c1ccco1)N1CCN(c2ccc(F)cc2)CC1 (configuration not stated),-0.1,?,2,-1%,2,-21
O=c1[nH]c(NCCO)c(N=Cc2ccccc2)c(=O)[nH]1,-8.8,-2%[15.4 µM],3,5%,-4,-9
O=C(NCc1csc(-c2ccccc2)n1)c1cc(F)cc2c1OCOC2,6.0,4%[15.4 µM],-1,-1%,1,-4
O=c1[nH]cc(N2CCCCCC2)c(=O)[nH]1,-6.4,7%[15.4 µM],0,9%,-6,10
O=S(=O)(/N=C(/c1ccccc1)N1CCOCC1)c1ccc(F)cc1F,-1.6,-32%,0,15%,-6,13
COc1ccc(NC(=O)NC2CCCc3ccccc32)c(OC)c1 (configuration not stated),2.1,-7%,-5,0%,-8,-11
Cc1cc2oc(C(=O)Nc3c(C)n(C)n(-c4ccccc4)c3=O)c(C)c2cc1Cl,0.0,-7%,-4,-8%,10,4
COc1ccccc1Nc1ncnc2nc[nH]c12,-5.6,13%,-7,-1%,-13,-2
CCN(CC(=O)Nc1ccc(NC(C)=O)cc1)C(=O)Cc1c(Cl)cccc1Cl,-5.9,-7%,-5,-15%,-22,7
O=C1c2ccccc2-c2nccnc21,-12,3%,-2,8%,-42,-1
COc1ccc(Br)cc1S(=O)(=O)N1CCN=C1c1ccccc1,4.0,?,0,-3%,-5,2
COCCOC(=O)C1=C(C)NC(=O)NC1c1ccc(Cl)cc1 (configuration not stated),0.7,?,15,-10%,-5,49
Cc1cc(C)cc(N2C(=O)CC(Sc3ccccc3C(=O)O)C2=O)c1 (configuration not stated),-5.0,1%[15.4 µM],1,14%,-2,11
CCCC(=O)N=C1SC2CS(=O)(=O)CC2N1c1ccc(C(C)=O)cc1 (configuration not stated),0.2,-2%,-5,2%,-5,1
Cc1cc(C(=O)NCCC(c2ccccc2)c2ccccc2)c(C)o1,-5.9,-11%,-7,-27%,-17,-4
CC1CCc2c(sc(/N=C/c3ccco3)c2C(N)=O)C1 (configuration not stated),-3.7,12%[15.4 µM],-4,11%,-7,-3
CCCCOc1ccc(C(=O)NCC(=O)NCCOc2ccc(C)cc2)cc1,-0.8,-5%,1,3%,-8,nt
CC(=O)c1cc2c(cc1NC(=O)c1cnc(C)cn1)OCO2,-0.6,2%,4,?,-9,11
COc1ccc(CCNS(=O)(=O)c2ccc(-n3cnnn3)cc2)cc1OC,0.4,-1%,3,0%,-2,0
Cc1cc(C)cc(N2CC(O)=C(c3nc4ccccc4c(=O)[nH]3)C2=N)c1,-4.8,-3%[15.4 µM],1,-9%,-2,5
CC(=O)N1N=C(c2ccccc2)CC1c1ccc(F)cc1 (configuration not stated),-4.6,?,3,-1%,12,nt
